Bioassay records deposited in PubChem BioAssay by ICCB-Longwood Screening Facility, Harvard Medical School.
RVFV N-RNA FP: RVFV nucleocapsid-RNA interaction inhibition; AID 651828; P21700; % bound, % (no concentration beside the values); 0.1% of 20,000 active; RVFV N-RNA binding, fluorescence polarization; active compounds read low;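 active = between 0 and 58% in either replicate with normal brightness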;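 note: 100 nL library stock added to about 12 µL; 100% = protein and probe without compound and 0% = probe alone; numbers are from one replicate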
Target sequence (P21700 whole entry, looked up): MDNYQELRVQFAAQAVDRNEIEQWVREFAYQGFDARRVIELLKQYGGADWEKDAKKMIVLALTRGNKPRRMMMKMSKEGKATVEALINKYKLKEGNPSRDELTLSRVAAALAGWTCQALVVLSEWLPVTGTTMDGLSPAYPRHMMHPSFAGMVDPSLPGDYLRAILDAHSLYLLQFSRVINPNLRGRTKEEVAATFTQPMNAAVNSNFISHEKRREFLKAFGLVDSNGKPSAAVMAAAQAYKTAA
* hit, by the source's call; & = joins results of further samples. Not all compounds are listed, so the mix of outcomes need not match the whole.

SMILES	RVFV N-RNA FP
COCCNC(=S)c1ccc(OC)cc1	95
COC(=O)c1cccc(OCC(O)Cn2ccnc2)c1 (configuration not stated)	97
COc1ccc(CCNC(=O)/C(C#N)=C/c2ccc[nH]2)cc1OC	96
O=C(Nc1nc2ccc(S(=O)(=O)N3CCCC3)cc2s1)c1ccncc1	98
O=C(O)Cc1cnc[nH]1	97
O=C1N=c2ccccc2=C1c1c(O)[nH]c2ccc(Cl)cc12	114
CCn1c(SCC(=O)NCc2ccccc2)nc2c([nH]c3ccccc32)c1=O	105
Clc1ccc(C(c2ccccc2Cl)C(Cl)Cl)cc1 (configuration not stated)	91
NC(=S)NC1CC2CC1C1C=CCC21 (configuration not stated)	97
Cc1nc(C)c(CCNC(=O)c2cccs2)s1	99
O=c1[nH]cnc2cccc(F)c12	100
O=C(c1cccc(Br)c1)N1CCN(c2cnn(-c3ccccc3)c(=O)c2Cl)CC1	98
CCOc1ccc(NC(=O)CC2C(=O)NCCN2C(=O)Nc2ccccc2)cc1 (configuration not stated)	85
CCOC(=O)/C(=N\O)C1=NC(C)(C)Cc2ccccc21	100
Cc1ccc2oc3c(c(=O)c2c1)C(c1cccs1)N(CCN(C)C)C3=O (configuration not stated)	101
CN(C)CCOC(c1ccccc1)c1ccccc1	96&97&96
CCC1(c2ccccc2)NC(=S)N(C)N1 (configuration not stated)	79
CN(C)CCN(C)Cc1ccccc1C(F)(F)F	95
COc1ccccc1N1CCN(CCCCNC(=O)c2ccc(Cl)cc2)CC1	93
O=S(=O)(Nc1ccc(F)cc1)c1cccc2cccnc12	97

A different layout for 4 compounds above:
Compound: O=C(Nc1nc2ccc(S(=O)(=O)N3CCCC3)cc2s1)c1ccncc1
  RVFV N-RNA FP: 98

Compound: O=c1[nH]cnc2cccc(F)c12
  RVFV N-RNA FP: 100

Compound: O=C1N=c2ccccc2=C1c1c(O)[nH]c2ccc(Cl)cc12
  RVFV N-RNA FP: 114

Compound: CCOC(=O)/C(=N\O)C1=NC(C)(C)Cc2ccccc21
  RVFV N-RNA FP: 100

The listing picks up, repeating the seven entries before the break.
SMILES	RVFV N-RNA FP
CCOC(=O)/C(=N\O)C1=NC(C)(C)Cc2ccccc21	100
Cc1ccc2oc3c(c(=O)c2c1)C(c1cccs1)N(CCN(C)C)C3=O (configuration not stated)	101
CN(C)CCOC(c1ccccc1)c1ccccc1	96&97&96
CCC1(c2ccccc2)NC(=S)N(C)N1 (configuration not stated)	79
CN(C)CCN(C)Cc1ccccc1C(F)(F)F	95
COc1ccccc1N1CCN(CCCCNC(=O)c2ccc(Cl)cc2)CC1	93
O=S(=O)(Nc1ccc(F)cc1)c1cccc2cccnc12	97
COC(=O)c1oc2cc(C)ccc2c1C	98
O=C(NC(=S)Nc1ccc(-c2nc3ccccc3o2)cc1)c1ccccc1	90
CC(C)(C)S(=O)(=O)/C(C#N)=C/Nc1ccc(Cl)cn1	92
CCOc1ccc2c(CC)cc(=O)oc2c1C	90
CCCOc1ccc(-c2ccc(C(=O)O)cc2)cc1	98
CC(=O)N1CN(C(C)=O)C(O)C1O (configuration not stated)	100
CCC(=O)N1N=C(c2ccc(NS(C)(=O)=O)cc2)CC1c1ccccc1 (configuration not stated)	94
CCCC1NC(=O)NC(C)=C1C(=O)OCC (configuration not stated)	97
S=C(N/N=C/c1ccco1)NC1CC2CCC1C2 (configuration not stated)	91
Cc1onc(-c2ccccc2Cl)c1NC(=O)NCCc1ccncc1	97
CC1CC(C)CN(C(=O)c2cccc3c2-c2ccccc2C3=O)C1 (configuration not stated)	95
CC(O)Cn1c2ccccc2c2ccccc21 (configuration not stated)	106
CC(C)Oc1cccc(C(=O)Nc2ccccc2)c1	88
CC(=O)N1CCN(Cc2ccccc2F)CC1	96
COC(=O)c1ccc(/C=C2/SC(=O)N(C(C)C(=O)OC)C2=O)cc1 (configuration not stated)	95
O=C(CCS(=O)(=O)c1ccccc1)Nc1ccc2sccc2c1	102
O=c1c(OCCc2ccccc2)c(-c2ccco2)oc2ccccc12	100
N#Cc1cn(CC(=O)Nc2ccc(Br)cc2)c2ccccc12	93
Cc1nc(/C(N)=N/O)c(C(F)(F)F)o1	93
Cc1cc(N2C(=O)c3ccccc3C2=O)no1	102

Remaining list, next part:
SMILES	RVFV N-RNA FP
O=C1CC(NC(=O)N2CCn3cccc3C2c2ccccc2F)CN1c1ccccc1 (configuration not stated)	89
CCC(Cc1ccccc1)NC(=O)c1ccco1 (configuration not stated)	95
O=C(CN1C(=O)CCC1=O)Nc1nc2ccccc2s1	101
COC(=O)CSc1nnc2[nH]c(=O)cc(C)n12	97
Cc1cc([C@@H]2CCCN2C)on1	92
CC1=C(C#N)C(c2ccc(C#Cc3ccccc3)s2)C2=C(CCCC2=O)N1 (configuration not stated)	101
N#C/C(=C\c1cn(Cc2ccccc2)c2ccccc12)C(=O)Nc1ccccc1O	99
O=c1c(-c2nc(-c3ccc(Cl)cc3)no2)cnc2n1CCS2	83
COc1ccc(C(=O)Nc2cc3c4c(c2)CCC(=O)N4CCC3)cc1OC	103
CC1C(O)=C(c2nc3ccccc3[nH]2)C(=N)N1c1ccccc1 (configuration not stated)	91
COc1ccc(-n2cc(C#N)c(=O)[nH]c2=O)cc1	99
Cc1cc(C)nc(SCC(=O)N2CCOCC2)n1	88
CCn1c(CCc2ccccc2)nnc1SCC(=O)Nc1cccc(OC)c1	103
COC(=O)c1cc(OC)c(OC)cc1NC(=O)CC1CCCCC1	96
Cc1ccnc(NCn2cnc3ccccc32)c1	105
COCCOC(=O)c1c(C)oc2cc(Br)c(OCC(=O)c3ccc(OC)cc3)cc12	102
O=C1NS(=O)(=O)c2ccccc2S(=O)(=O)c2ccccc21	99
CCOC(=O)c1csc(-c2sccc2COc2ccccc2)n1	90
CCOC(=O)c1sc(N/N=C/C2CC=CCC2)nc1C (configuration not stated)	97
CCCN(CCC)C(=O)C(C)Oc1ccccc1 (configuration not stated)	98

Additional entries follow.
SMILES	RVFV N-RNA FP
CC(=O)Nc1ccc(NS(=O)(=O)c2cn(C)cn2)cc1	98
CC(C)(C)NNC(=S)Nc1cccc(F)c1	93
CCOC(=O)c1cc2c(=O)n3ccccc3nc2n(C2CCCCC2)c1=NC(=O)c1cccnc1	91
NCCSSCCN	100
CCOC(=O)c1oc2cc(O)cc(O)c2c(=O)c1-c1ccc(OC)c(OC)c1	98
O=C(CSc1nc2ccccc2c(=O)n1-c1ccccc1)NCCCN1CCOCC1	96
O=c1cc(CN2CCN(c3ccccc3)CC2)occ1OC/C=C/c1ccccc1	99
CC(C)(/C=N/Nc1nc2ccccc2o1)CO	110
Cc1cc(C(=O)NCc2csc(-c3cccs3)n2)nn1C	94
Cc1cc(C)c2oc3nc(N)c(C#N)cc3c(=O)c2c1	94
COc1ccc2nc(-n3c(C)ccc3C)sc2c1	93
COc1ccc(NC(=O)COc2nc(N(C)C)nc(N(C)C)n2)cc1	89
C=CCOn1c(=O)c(-c2ccc(C)cc2)[n+]([O-])c2ccccc21	100
O=C(Nc1ccccc1C(=O)O)c1cccs1	93
O=S(=O)(Nc1ccccc1N1CCCCC1)c1ccccc1	89
COc1cccc(S(=O)(=O)NCc2ccc(C(=O)N3CCCC3)cc2)c1	99
O=C1CC(NC(=O)C(F)(F)F)=NN1c1ccccc1	98
COc1ccc(NC(=O)CSc2nc3c(cc2C#N)CCC3)cc1	91
Cc1ccc(S(=O)(=O)c2c(N)n(Cc3ccco3)c3nc4ccccc4nc23)cc1	90
O=C(Cc1ccccc1)NCCSc1ccccc1	94

Later entries
SMILES	RVFV N-RNA FP
CCOC(=O)c1ccc(NC(=O)C(CC(C)C)N2C(=O)C3C4C=CC(C4)C3C2=O)cc1 (configuration not stated)	93
COc1ccc(CN2CCc3c([nH]c4ccccc34)C2)cc1	93
CCCc1cc(=O)[nH]c(SCc2ccccn2)n1	96
CC(=O)N1CCc2c(sc(NC(=O)c3ccco3)c2C(N)=O)C1	99
c1ccc(NCCCNc2ccccc2)cc1	93
CCc1ccc(NC(=O)CC(NCc2ccco2)C(=O)O)cc1 (configuration not stated)	96
Cc1ccc2nsnc2c1S(=O)(=O)NC(C)c1ccccc1 (configuration not stated)	97
CC(=O)N1C(=S)NC(=O)/C1=C\c1ccccc1Cl	93
CN[C@@H]1[C@@H](O[C@H]2O[C@H](CO)[C@@H](N)[C@H](O)[C@H]2O)O[C@H]2C[C@@H](N)[C@@H](O[C@H]3[C@H](O)[C@@H](O)[C@H](N)C[C@@H]3N)O[C@@H]2[C@@H]1O	97
Nc1nc(SCc2cccc(Br)c2)n[nH]1	94
CC(=O)Nc1ccc(S(=O)(=O)NC2CC(=O)N(c3ccc(F)cc3)C2)cc1 (configuration not stated)	94
C[C@]12CCC(=O)C=C1CC[C@@H]1[C@@H]2C(=O)C[C@@]2(C)[C@H]1CC[C@]2(O)C(=O)CO	110&102
CC(=O)[C@@]1(O)CCC2C3CCC4=CC(=O)CC[C@]4(C)C3CC[C@@]21C (some centres not stated)	102
CN1CCC(=NOC(=O)Nc2ccccc2)CC1	93
CCN(CC)S(=O)(=O)c1ccc(Cl)c(C(=O)OC)c1	95
Cc1c(CCC(C)C)c(NCCN2CCOCC2)n2c(nc3ccccc32)c1C#N	94
O=C1OC2(O)C3C4C=CC(C4)C3C(=O)N2c2ccccc21 (configuration not stated)	96
S=c1cc(-c2ccccc2)[nH]c(=S)[nH]1	86
O=NN(CCCl)C(=O)NC1CCCCC1	106
N#CCSCC(=O)Nc1ccccc1	110

(list continues)
SMILES	RVFV N-RNA FP
CNC(=O)c1ccccc1S(=O)c1ccccc1CO (configuration not stated)	107
Cc1nonc1NC(=O)CSc1ccccn1	99
NC(=O)C1CCN(C(=O)c2ccccc2)CC1	99
FC(F)(F)c1cc(N2CCN(c3ccccc3)CC2)c2cccc(Cl)c2n1	100
CC1CCCN(S(=O)(=O)c2cccc(S(C)(=O)=O)c2)C1 (configuration not stated)	99
CCC(=O)Oc1ccc(C#N)cc1OC	96
O=C(CN1c2ccccc2Sc2ccccc21)N/N=C/c1ccco1	94
CC1CCN(CC(=O)NCc2ccccc2)CC1	95
CCN1CCC(N2CCCCC2)CC1	89
CCn1c(SCC(=O)N2c3ccccc3Sc3ccccc32)nnc1-c1ccco1	89
O=C1c2c(O)cccc2[C@@H](O[C@@H]2O[C@H](CO)[C@H](O)[C@@H](O)[C@H]2O)c2cc(CO)cc(O)c21	100
CCc1oc2cc(OC(C)=O)ccc2c(=O)c1-c1ccc2c(c1)OCCO2	102
CC1CN(c2ncnc3c2cnn3-c2ccccc2)CC(C)O1 (configuration not stated)	95
CN[C@H]1CC[C@@H](c2ccc(Cl)c(Cl)c2)c2ccccc21	97&97&100
O=C(CN1CCOCC1)Nc1ncc(Cc2ccc(Cl)cc2)s1	95
CC(C)NC(=O)c1ccccc1NS(=O)(=O)Cc1ccccc1	93
CCNC(=S)N1CCN(CCN=Cc2c(O)[nH]c(=O)[nH]c2=O)CC1	100
CCOC(=O)C1CCCN(Cc2ccc(CC)cc2)C1 (configuration not stated)	99
C[C@]12CC[C@@H]3c4ccc(O)cc4CC[C@H]3[C@@H]1CC[C@@H]2O	97&98&94
O=c1[nH]c2ccc(N=Cc3cc(Br)c(O)c(Br)c3O)cc2[nH]1	84

(next part)
SMILES	RVFV N-RNA FP
CSc1ncnc2sc(-c3ccccc3)cc12	93
NC(=O)NO	93
CCCN1C(=O)c2ccc(C(=O)Nc3cc(OC)c(OC)cc3C(=O)O)cc2C1=O	110
CCN(CC)c1ccc(CNc2ccc3c(c2)ncn3C)cc1	97
CC(C)(CO)NC(=S)NC1CC1	96
CCOc1ccccc1NC(=O)C(C)CC (configuration not stated)	93
COc1cccc(C(=O)COc2ccc3ccc(=O)oc3c2)c1	96
S=C(NCCN1CCOCC1)c1ccc(Cl)cc1	103
COc1ccc(C[C@H](C)NC[C@@H](O)c2ccc(O)c(NC=O)c2)cc1	96
CCOC(=O)c1sc(N2C(=O)c3ccccc3C2=O)c(C#N)c1C	96
O=C(Sc1nc2ccccc2o1)c1ccccc1	95
O=C(NNc1nc2c(F)cccc2s1)C1=COCCO1	96
Cc1ccc(C(=O)c2cc(O)c(O)c([N+](=O)[O-])c2)cc1	96
OC(COc1ccccc1)COc1ccccc1	89
COCc1cc(C)nc(SCC(=O)NC2CCCCC2C)c1C#N (configuration not stated)	91
Cn1c(/C=C(\C#N)C(N)=S)ccc1-c1ccc(Br)cc1	95
CCCN1C(=O)/C(=C\C(=O)c2cccs2)c2ccccc21	94
c1ccc(OCc2nc3ccccc3s2)cc1	90
CN(C)c1cc2c(Nc3ccc4c(cnn4Cc4ccccc4)c3)ncnc2cn1	95
CC(Oc1ccc(/C=C2/SC(=O)N(C)C2=O)cc1)C(=O)O (configuration not stated)	95

Continued.
SMILES	RVFV N-RNA FP
O=C1NC(=S)NC(=O)C1=Cc1ccncc1	112
CCCCOC(=O)N1C2C=CC(C2)C1(C(F)(F)F)C(F)(F)F (configuration not stated)	97
CC1CC(=O)Nc2ccccc2O1 (configuration not stated)	90
COc1cc(NC(C)CCCN)c2ncccc2c1 (configuration not stated)	95&103
C=C(C)COc1ccc2c(CC)cc(=O)oc2c1OCC(=C)C	102
C(=Nc1ccc(Nc2ccccc2)cc1)c1ccco1	88
